LANA-H2B inh – blocks KSHV LANA binding to histone H2A/H2B. inhibition, % (no concentration beside the values). 0.6% of 320,000 active. cell-free LANA-H2A/H2B peptide, fluorescence polarization. Q9QR71; in the data active = inhibition mostly above about 10%, no sharp cut-off; inactive = mostly below about 6.7%;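 also: stock transfer was 7.5 nL into about 10 µL; 0% = median of vehicle wells and 100% = median of positive control wells; one replicate is shown; the record names a cut of 25% in any replicate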
Target sequence (Q9QR71 whole entry, looked up): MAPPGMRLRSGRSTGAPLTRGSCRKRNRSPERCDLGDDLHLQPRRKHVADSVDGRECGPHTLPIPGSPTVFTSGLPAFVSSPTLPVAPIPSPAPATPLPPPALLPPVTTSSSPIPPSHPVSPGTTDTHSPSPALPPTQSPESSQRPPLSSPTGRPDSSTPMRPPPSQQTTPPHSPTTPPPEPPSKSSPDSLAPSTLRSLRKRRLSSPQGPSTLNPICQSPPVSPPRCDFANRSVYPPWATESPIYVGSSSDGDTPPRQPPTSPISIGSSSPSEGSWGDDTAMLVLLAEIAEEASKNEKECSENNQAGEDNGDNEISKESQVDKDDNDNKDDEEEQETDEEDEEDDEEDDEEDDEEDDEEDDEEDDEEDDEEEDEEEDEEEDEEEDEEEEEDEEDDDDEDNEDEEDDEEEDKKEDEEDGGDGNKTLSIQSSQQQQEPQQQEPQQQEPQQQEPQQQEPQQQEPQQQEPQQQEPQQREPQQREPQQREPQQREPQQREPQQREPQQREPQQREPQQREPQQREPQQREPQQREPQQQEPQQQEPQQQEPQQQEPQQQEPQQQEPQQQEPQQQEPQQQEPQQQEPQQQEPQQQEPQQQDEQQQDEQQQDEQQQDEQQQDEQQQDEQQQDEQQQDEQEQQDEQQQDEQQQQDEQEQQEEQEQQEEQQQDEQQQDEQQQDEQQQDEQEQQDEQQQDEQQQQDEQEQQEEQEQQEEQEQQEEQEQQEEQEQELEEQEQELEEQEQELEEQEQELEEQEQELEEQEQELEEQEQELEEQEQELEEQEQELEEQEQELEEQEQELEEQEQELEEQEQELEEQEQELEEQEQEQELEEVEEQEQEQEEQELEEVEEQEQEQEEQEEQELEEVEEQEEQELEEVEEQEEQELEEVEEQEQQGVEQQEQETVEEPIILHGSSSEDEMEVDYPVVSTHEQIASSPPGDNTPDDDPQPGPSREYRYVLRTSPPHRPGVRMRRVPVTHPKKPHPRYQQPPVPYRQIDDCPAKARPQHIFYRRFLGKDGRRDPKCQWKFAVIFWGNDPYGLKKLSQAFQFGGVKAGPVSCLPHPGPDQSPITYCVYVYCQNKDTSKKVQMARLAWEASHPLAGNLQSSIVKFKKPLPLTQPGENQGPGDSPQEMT
Bfl-1 A1 inh – inhibitors of the anti-apoptotic protein A1, read as caspase activation; MEF A1-2A-BIM cells, Caspase-Glo 3/7 luminescence, 3 h; percent of clofoctol response, vehicle zero; caspase activation, % (test concentration not listed); 0.066% of 330,000 active; AID 2462;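 active = over half of replicate activation scores above 10%, or exactly half above 10 with the replicate mean above 10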;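 also: wells of about 30 µL received 50 nL stock; many hits fall short of the cut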
E coli growth – blocks Escherichia coli growth; OD600, 23 h; hits give low values; OD600 absorbance (concentration not given with the values); 0.21% of 330,000 active;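 active = OD600 absorbance below the run mean of sample wells minus 3.6 SD, in any replicate, cut at about 0.56 in these data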;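 also: stock transfer was 300 nL into about 60 µL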
An asterisk follows results filed as active; . = not tested or not shown; & = joins results of further samples. A portion of the library (hit frequency here may not be typical).

SMILES | LANA-H2B inh | Bfl-1 A1 inh | E coli growth
CCCCN1C(=O)/C(=C/c2ccc(N3CCCCCC3)cc2)C(=O)NC1=S | 1.0 | 0.4 | .
Oc1ccc(C(=C(Cl)Cl)c2ccc(O)cc2)cc1 | -1.8 | 1.4 | .
COC1CC(OC2CCC3(C)C(CCC4C3CCC3(C)C(C5=CC(=O)OC5)C(OC(C)=O)CC43O)C2)OC(C)C1OC1OC(COC2OC(CO)C(O)C(O)C2O)C(O)C(O)C1O (stereo not drawn) | -2.8 | 0.4 | .
O=C1NC(=O)N(c2ccccc2)C(=O)/C1=C\c1ccc([N+](=O)[O-])o1 | 5.3 | -0.5 | .
C[N+]1(CCC(C(N)=O)(c2ccccc2)c2ccccc2)CCCCC1 | -2.0 | 0.4 | .
CC(C)n1c(=O)c(C=Nc2ccc(Cl)cc2)c(O)n(Cc2ccco2)c1=O | 0.7 | -0.4 | .
COc1ccc(N2C(=O)NC(=O)/C(=C/c3ccc4c(c3)Cc3ccccc3-4)C2=O)cc1 | -2.4 | -0.6 | .
COC(=O)C1=C(c2cccc(OCc3ccccc3)c2)CC2CCC1N2C(=O)NCc1ccc(OC)cc1 (stereo not drawn) | . | . | 0.76
COC(=O)C1=C(c2cccc(C#N)c2)CC2CCC1N2C(=O)NC1Cc2ccccc2C1 (stereo not drawn) | . | . | 0.7
CCOC(=O)[C@]12Cc3c(cc(OC)c(OC)c3OC)C1N(Cc1ccccc1)C(=O)c1ccccc12 (stereo partly drawn) | . | . | 0.69
COC(=O)C1=C(c2ccc(F)cc2OCc2ccccc2)CC2CCC1N2C(=O)NCc1ccccc1Br (stereo not drawn) | . | . | 0.73
CC1C2C[C@@]34COC(=O)C3=CC=CC4[C@@]13CC(c1ccoc1)OC3O2 (stereo partly drawn) | . | . | 0.69
COC(=O)[C@@]1(Cc2ccc(F)cc2)C2c3cc(C(=O)N(C)C)[nH]c3CC2CN1C(=O)c1ccccc1 (stereo partly drawn) | . | . | 0.66
COC(=O)C1=C(c2ccc(OC(F)(F)F)cc2)CC2CCC1N2C(=O)NCCNC(C)=O (stereo not drawn) | . | . | 0.7
C[C@@]12NC(Cc3ccccc31)c1ccccc12 | . | . | 0.69
COC(=O)C1=C(c2ccc(F)cc2OCc2ccccc2)CC2CCC1N2C(=O)NCCc1ccc(F)cc1 (stereo not drawn) | . | . | 0.68
COC(=O)C1=C(c2cc3ccccc3s2)CC2CCC1N2C(=O)NC1CC1 (stereo not drawn) | . | . | 0.68
COc1cc(C=C[N+](=O)[O-])ccc1O | . | . | 0.54
COC(=O)C1=C(c2ccc(Cl)c(C(F)(F)F)c2)CC2CCC1N2C (stereo not drawn) | . | . | 0.7
COC(=O)C1=C(c2c(C)noc2C)CC2CCC1N2C(=O)NCCOc1ccc(OC)cc1 (stereo not drawn) | . | . | 0.71
N[C@@]1(C(=O)O)CCC(C(=O)O)C1 (stereo partly drawn) | . | . | 0.72
COC(=O)C1=COC(C)C2CN3CC[C@@]4(C(=O)Nc5ccccc54)C3CC12 (stereo partly drawn) | . | . | 0.71
COC(=O)C1=C(c2ccc(F)cc2OCc2ccccc2)CC2CCC1N2C(=O)N1CCCCC1 (stereo not drawn) | . | . | 0.68
Cc1ccc(N2C(=O)C(=CN3CCN(C(=O)c4ccco4)CC3)C(=O)NC2=S)cc1C | . | . | 0.68
COC(=O)C1=C(c2ccc(F)cc2OCc2ccccc2)CC2CCC1N2C(=O)NCCN1CCOCC1 (stereo not drawn) | . | . | 0.7
COC(=O)C1=C(c2ccc(C(C)=O)cc2)CC2CCC1N2C(=O)NCCNC(C)=O (stereo not drawn) | . | . | 0.68
OC1CN2CCC(O)C2C(O)C1O (stereo not drawn) | . | . | 0.7
COC(=O)C1=C(c2ccccc2)CC2CCC1N2C(=O)N1CCOCC1 (stereo not drawn) | . | . | 0.68
COC(=O)C1=C(c2cc3ccccc3o2)CC2CCC1N2C(=O)N1CCC(C)CC1 (stereo not drawn) | . | . | 0.69
COc1cc2c(cc1O)C1Cc3ccc(OC)c(O)c3CN1CC2 (stereo not drawn) | . | . | 0.7
COC(=O)C1=C(c2c(C)noc2C)CC2CCC1N2C(=O)N1CCCCC1 (stereo not drawn) | . | . | 0.65
COC(=O)C1=C(c2ccc(-c3ccccc3)c(F)c2)CC2CCC1N2C(=O)N1CCCCC1 (stereo not drawn) | . | . | 0.73
COc1cc(C2OCC3C(c4cc(OC)c(OC5OC(CO)C(O)C(O)C5O)c(OC)c4)OCC23)cc(OC)c1OC1OC(CO)C(O)C(O)C1O (stereo not drawn) | . | . | 0.65
COC(=O)C1=C(c2ccc(S(C)(=O)=O)cc2)CC2CCC1N2C(=O)NCc1ccc(F)cc1 (stereo not drawn) | . | . | 0.7
COC(=O)C1=C(c2ccc(OC)c(OC)c2)CC2CCC1N2C(=O)NCCO (stereo not drawn) | . | . | 0.62
C[C@]12CCC3C(CC[C@]4(O)CC(O)CC[C@]34C=O)[C@@]1(O)CCC2C1=CC(=O)OC1 (stereo partly drawn) | . | . | 0.67
COC(=O)C1=C(c2ccc(OC(F)(F)F)cc2)CC2CCC1N2C(=O)NCCOc1ccc(OC)cc1 (stereo not drawn) | . | . | 0.69
COC(=O)C1=C(c2ccc(-c3ccccc3)c(F)c2)CC2CCC1N2C(=O)NCCCOC(C)C (stereo not drawn) | . | . | 0.69
COC(=O)C1=C(c2cc3ccccc3s2)CC2CCC1N2C(=O)NCCS(C)=O (stereo not drawn) | . | . | 0.68
COC(=O)C1=C(c2ccc(Cl)c(C(F)(F)F)c2)CC2CCC1N2C(=O)NCCNC(C)=O (stereo not drawn) | . | . | 0.69

Full records, quoted from the list. Values in the order: LANA-H2B inh | Bfl-1 A1 inh | E coli growth
`COC(=O)C1=C(c2ccc(F)cc2OCc2ccccc2)CC2CCC1N2C(=O)N1CCCCC1` (stereo not drawn) in the list: . | . | 0.68
`COC(=O)C1=C(c2ccc(-c3ccccc3)c(F)c2)CC2CCC1N2C(=O)N1CCCCC1` (stereo not drawn) in the list: . | . | 0.73
`COC(=O)C1=C(c2ccc(OC(F)(F)F)cc2)CC2CCC1N2C(=O)NCCOc1ccc(OC)cc1` (stereo not drawn) in the list: . | . | 0.69

(continued)
SMILES | LANA-H2B inh | Bfl-1 A1 inh | E coli growth
CN1C2CCC1CC(OC(=O)C1C=Nc3ccccc31)C2 (stereo not drawn) | . | . | 0.65
O=C(NC1CCCCC1)C1CC=CC2CCN(Cc3ccccc3)C(=O)C21 (stereo not drawn) | . | . | 0.66
COC(=O)C1C[C@@]1(C)C(NP(=O)(c1ccccc1)c1ccccc1)c1ccccc1 (stereo partly drawn) | . | . | 0.71
C=C1C2CCC3[C@]4(C)CC(OC5OC(CO)C(OS(=O)(=O)O)C(OS(=O)(=O)O)C5OC(=O)CC(C)C)CC(C(=O)O)C4CC[C@]3(C2)C1O (stereo partly drawn) | . | . | 0.67
COC(=O)C1=C(c2ccc(OC)c(OC)c2)CC2CCC1N2C(=O)NC(C)C (stereo not drawn) | . | . | 0.71
CC(=O)OC1C2CCC3[C@@](C)(O)C4C5OC5C(C)(C)[C@@]4(O)C(OC(C)=O)C[C@@]13C[C@@]2(C)O (stereo partly drawn) | . | . | 0.69
COc1cc(C2c3cc4c(cc3C(OC)C3COC(=O)C23)OCO4)cc(OC)c1O (stereo not drawn) | . | . | 0.65
COC(=O)C1=C(c2cccc(OCc3ccccc3)c2)CC2CCC1N2C(=O)NNCc1ccccc1 (stereo not drawn) | . | . | 0.72
COC(=O)C1=C(c2ccc(F)cc2OCc2ccccc2)CC2CCC1N2C(=O)NC1CCN(Cc2ccccc2)CC1 (stereo not drawn) | . | . | 0.69
COC(=O)C1=C(c2cc3ccccc3s2)CC2CCC1N2C(=O)NCc1cccc2ccccc12 (stereo not drawn) | . | . | 0.73
C=CCN1CC[C@]23c4c5ccc(O)c4OC2C(=NNC(=O)c2ccccc2)CC[C@@]3(O)C1C5 (stereo partly drawn) | . | . | 0.71
COC(=O)C1=C(c2ccc(OC)c(OC)c2)CC2CCC1N2C(=O)NC1CCCCC1 (stereo not drawn) | . | . | 0.7
COC(=O)C1=C(c2ccc(-c3ccccc3)c(F)c2)CC2CCC1N2C(=O)NC(C)C (stereo not drawn) | . | . | 0.69
CCCNC(=O)N1C2CCC1C(C(=O)OC)=C(c1cc3ccccc3o1)C2 (stereo not drawn) | . | . | 0.7
COC(=O)C1=C(c2cccc(C#N)c2)CC2CCC1N2C(=O)NCc1ccco1 (stereo not drawn) | . | . | 0.72
COC(=O)C1=C(c2ccc(OC)c(OC)c2)CC2CCC1N2C(=O)NCCOc1ccccc1 (stereo not drawn) | . | . | 0.69
CCN(CC)C(=O)NC1CC2c3cccc4[nH]cc(c34)CC2N(C)C1 (stereo not drawn) | . | . | 0.66
COC(=O)C1=C(c2cccc(OCc3ccccc3)c2)CC2CCC1N2C(=O)NCc1cccc(OC)c1 (stereo not drawn) | . | . | 0.68
C[C@]12CCC(=O)C=C1CCC1C2C(=O)C[C@]2(C)C(=O)CCC12 (stereo partly drawn) | . | . | 0.72
COC(=O)C1=C(c2ccc(C(C)=O)cc2)CC2CCC1N2C(=O)NC1CC1 (stereo not drawn) | . | . | 0.71
COC(=O)C1=C(c2ccc(F)cc2OCc2ccccc2)CC2CCC1N2C(=O)NCc1ccc([N+](=O)[O-])cc1 (stereo not drawn) | . | . | 0.75
COC(=O)C1=C(c2cc3ccccc3s2)CC2CCC1N2C(=O)N1CCCCC1 (stereo not drawn) | . | . | 0.73
COc1cc2c(cc1OC)C1C(=O)c3ccc4c(c3OC1CO2)CC(C(C)(C)O)O4 (stereo not drawn) | . | . | 0.68
COC(=O)C1=C(c2cccc(C#N)c2)CC2CCC1N2C(=O)NCCOc1ccc(OC)cc1 (stereo not drawn) | . | . | 0.69
COC(=O)C1=C(c2ccccc2OCc2ccccc2)CC2CCC1N2C(=O)NCc1ccc(OC)cc1 (stereo not drawn) | . | . | 0.71
CCC1CN2CCC1CC2C(O)c1ccnc2ccc(OC)cc12 (stereo not drawn) | . | . | 0.62
COC(=O)C1=C(c2cccc(OCc3ccccc3)c2)CC2CCC1N2C(=O)NCCOc1ccccc1Cl (stereo not drawn) | . | . | 0.76
CC1(C)NC(=O)C2CCCN21 (stereo not drawn) | . | . | 0.7
NC(Cn1oc(=O)[nH]c1=O)C(=O)O (stereo not drawn) | . | . | 0.7
COC(=O)C1=C(c2cc3ccccc3s2)CC2CCC1N2C (stereo not drawn) | . | . | 0.66
COC(=O)C1=C(c2cccc(Cl)c2)CC2CCC1N2C(=O)N1CCCC1 (stereo not drawn) | . | . | 0.7
COC1=CC(=O)OC(C=Cc2ccccc2)C1 (stereo not drawn) | . | . | 0.7&0.64
COc1cc2c3c(c1OC)Oc1ccc(cc1)CC1c4c(cc(OC)c(OC)c4Oc4ccc(cc4)CC3N(C)CC2)CCN1C (stereo not drawn) | . | . | 0.69
COC(=O)C1=C(c2ccc(OC(F)(F)F)cc2)CC2CCC1N2C(=O)NCc1cccc2ccccc12 (stereo not drawn) | . | . | 0.75
COC(=O)C1=C(c2ccc(Cl)c(C(F)(F)F)c2)CC2CCC1N2C(=O)N1CCOCC1 (stereo not drawn) | . | . | 0.7
COC(=O)C1=C(c2ccc(C(C)=O)cc2)CC2CCC1N2C(=O)N1CCOCC1 (stereo not drawn) | . | . | 0.71
COCCNC(=O)N1C2CCC1C(C(=O)OC)=C(c1ccc(-c3ccccc3)c(F)c1)C2 (stereo not drawn) | . | . | 0.68
COC(=O)C1=C(c2ccc(OC)c(OC)c2)CC2CCC1N2C(=O)NCC1CC1 (stereo not drawn) | . | . | 0.62
COC(=O)C1=C(c2ccc(OC)c(OC)c2)CC2CCC1N2C(=O)N1CCCCC1 (stereo not drawn) | . | . | 0.7
CCCCCCNC(=O)NC(Cc1ccc(O)cc1)C(=O)NCCCC1CN2C(=NCC2C)N1CC1CCC1 (stereo not drawn) | . | . | 0.71
CCN1C[C@]2(COC)CCC(OC)[C@@]34C5CC6C(OC)C[C@@]7(OCO[C@]7(C(O)C23)C14)C5C6OC (stereo partly drawn) | . | . | 0.69
COCCNC(=O)N1C2CCC1C(C(=O)OC)=C(c1cccc(C#N)c1)C2 (stereo not drawn) | . | . | 0.72
COC1CC(OC2OC(CO)C(O)C(O)C2O)C(=CC#N)C(O)C1OC (stereo not drawn) | . | . | 0.71
COc1ccccc1N1C(=O)NC(=O)C(=Cc2ccc3c(c2)Cc2ccccc2-3)C1=O | . | . | 0.72
COC(=O)C1=C(c2ccc(F)cc2OCc2ccccc2)CC2CCC1N2C(=O)NCC1CC1 (stereo not drawn) | . | . | 0.67
CC(=O)OCC(=O)C1CCC2C3CCC4CC(O)CC[C@]4(C)C3C(=O)C[C@]12C (stereo partly drawn) | . | . | 0.7
COC(=O)C1=C(c2ccc(F)cc2OCc2ccccc2)CC2CCC1N2C(=O)NCCCOC(C)C (stereo not drawn) | . | . | 0.61
COC(=O)C1=C(c2ccc(-c3ccccc3)c(F)c2)CC2CCC1N2C(=O)NCc1ccco1 (stereo not drawn) | . | . | 0.67
COC(=O)C1=C(c2cccc(OCc3ccccc3)c2)CC2CCC1N2C(=O)NCc1cccc(F)c1 (stereo not drawn) | . | . | 0.75

In another format: entries from further up.
Results follow in this order: LANA-H2B inh | Bfl-1 A1 inh | E coli growth
> CCN1C[C@]2(COC)CCC(OC)[C@@]34C5CC6C(OC)C[C@@]7(OCO[C@]7(C(O)C23)C14)C5C6OC (stereo partly drawn)
    . | . | 0.69
> COC(=O)C1=C(c2ccc(-c3ccccc3)c(F)c2)CC2CCC1N2C(=O)NCc1ccco1 (stereo not drawn)
    . | . | 0.67
